Bioassay records from PubChem BioAssay.
PINK1 modulator – changes PINK1 expression. PINK1 immunofluorescence, high-content cytometry, 24 h. Potency, µM (series often up to 76.6 µM), inactives show at the highest dose activation (PINK1 increase), most hits filed as activators. 410,000 compounds, 0.2% hits; active = well fitted activation curve with a large enough effect; inconclusive = small, poorly fitted or top-dose-only effect; inactive = flat fitted curve, though single readings scatter; cell line not stated here;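 also: potency is read from the fitted curve at half-maximal effect; % of control where 0% means no effect; nearly all actives have a fitted effect of over 65% in size; a mitochondrial uncoupler was the plate control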
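Readout is PINK1 immunofluorescence, quantified alongside mitochondrial, cell and nuclear markers by laser-scanning microplate cytometry. Cells from a stable line were exposed to compound titrations (5 concentrations) for 24 hours, with CCCP controls.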
TRPML1 ag – activates the human TRPML1 channel; Q9GZU1; TRPML1-expressing cells, Ca2+ dye fluorescence, FDSS; host cell line not named in the record; reference of the full effect not given here; activation, % (test concentration not listed); 410,000 compounds, 0.12% hits; AID 624414; in the data active = activation above about 50%; inconclusive = about 30% to 50%; inactive = below about 30%; also: 0% is about no effect; the text of the record puts the active cut at 80%
Target sequence (Q9GZU1 whole entry, looked up): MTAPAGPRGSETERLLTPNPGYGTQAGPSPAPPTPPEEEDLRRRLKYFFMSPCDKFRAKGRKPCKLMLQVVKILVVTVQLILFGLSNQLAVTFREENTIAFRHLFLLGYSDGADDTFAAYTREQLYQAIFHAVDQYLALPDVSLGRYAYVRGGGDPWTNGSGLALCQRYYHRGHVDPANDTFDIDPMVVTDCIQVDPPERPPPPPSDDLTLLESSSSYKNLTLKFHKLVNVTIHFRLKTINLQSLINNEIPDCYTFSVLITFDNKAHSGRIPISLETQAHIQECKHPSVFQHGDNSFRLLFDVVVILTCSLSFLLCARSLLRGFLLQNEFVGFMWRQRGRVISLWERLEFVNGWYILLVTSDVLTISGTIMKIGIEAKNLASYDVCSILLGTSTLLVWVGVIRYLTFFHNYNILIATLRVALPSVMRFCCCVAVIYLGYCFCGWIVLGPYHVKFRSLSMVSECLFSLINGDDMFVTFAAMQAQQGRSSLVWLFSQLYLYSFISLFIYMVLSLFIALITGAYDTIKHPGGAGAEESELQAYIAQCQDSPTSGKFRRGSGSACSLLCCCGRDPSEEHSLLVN
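Kinetic FDSS Ca2+ read in Tet-induced TRPML1-DL cells (ABD Ca8 dye plus quencher, 45-90 min RT loading): baseline, then compound, then 110 s agonist window; EC80 agonist 54-4 at 4uM final added afterwards for a 110 s antagonist window.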
Active calls of the source: *. Only part of the results is shown; rates above refer to the full screens.

Compound	PINK1 modulator	TRPML1 ag
CC(=O)Nc1ccc(/C=C/c2nc(-c3ccccc3O)n(-c3ccccc3)n2)cc1	7.6%	1.0
O=C(COc1ccccc1C(=O)Nc1ccccc1)Nc1cccc(Br)c1	1.9%	0.0
O=C(NC1CCCCC1)c1ccc(CSc2nc3cccnc3n2Cc2ccccc2)cc1	5.1%	-0.1
COc1ccc(CN(Cc2ccco2)C(=O)c2ccccc2F)cc1	-0.4%	2.8
CC(CNC(=O)c1nnc(Cc2cccc(F)c2)o1)c1ccccc1 (stereo not drawn)	2.8%	0.0
O=C(Cc1ccc(Cl)cc1)NCC(c1cccs1)S(=O)(=O)c1ccc(F)cc1 (stereo not drawn)	0.9%	1.7
COc1ccc(-n2c(=O)c3ccc(C(=O)NCc4ccc(C)cc4)cc3n(Cc3cccc(Cl)c3)c2=O)cc1	-4.8%	1.0
CCC(=O)N1CCc2cc(CNC(=O)Nc3ccc(OC)cc3OC)ccc21	0.5%	2.7
CCC(=O)N1CCc2cc(S(=O)(=O)NC(Cc3ccccc3)C(=O)NCc3ccc(F)cc3)ccc21 (stereo not drawn)	-1.1%	-0.3
Clc1ccc(Cn2c3c(c4ccccc42)CCc2cc4ccccc4nc2-3)cc1	5.5%	0.3
CCCOC(=O)c1ccc(NC(=O)Cc2csc(C)n2)cc1	-0.2%	4.2
Cc1nnc(NC(=O)C(=O)c2cc(C)n(-c3ccc(C)c(C)c3)c2C)s1	-0.1%	-0.7
CCOc1ccc(NC(=O)C2CCN(S(=O)(=O)c3cc(-c4noc(C)n4)ccc3C)CC2)cc1	3.4%	-0.2
Cc1ccccc1NC(=O)CCNC(=O)Cn1ccc2ccccc2c1=O	1.2%	-0.4
Cc1ccc(S(=O)(=O)c2nnn3c2nc(N2CCN(c4ccccc4F)CC2)c2cc(Cl)ccc23)cc1C	-2.8%	-1.4
CNc1c(Cl)cc(C=O)cc1Cl	0.5%	-0.7
Cc1ccc(NC(=O)CSc2nnc(-c3cc4occc4n3C)n2-c2ccccc2C)c(Cl)c1	0.3%	1.9
CCOc1ccc(C(=O)Nc2c(C(=O)Nc3ccccc3F)oc3ccccc23)cc1OCC	0.2%	0.2
COc1ccc(N(C(=O)c2ccccc2)S(=O)(=O)c2ccc3c(c2)n(C)c(=O)n3C)cc1	-1.4%	1.3
CCN(CC)c1ccc(NS(=O)(=O)c2ccc3c(c2)CCCN3C(C)=O)c(C)c1	-0.3%	0.6

Individual results from the entries so far.
`Clc1ccc(Cn2c3c(c4ccccc42)CCc2cc4ccccc4nc2-3)cc1` @ PINK1 modulator = 5.5%
`CCOc1ccc(NC(=O)C2CCN(S(=O)(=O)c3cc(-c4noc(C)n4)ccc3C)CC2)cc1` @ TRPML1 ag = -0.2
`Cc1ccc(S(=O)(=O)c2nnn3c2nc(N2CCN(c4ccccc4F)CC2)c2cc(Cl)ccc23)cc1C` @ PINK1 modulator = -2.8%
`CNc1c(Cl)cc(C=O)cc1Cl` @ TRPML1 ag = -0.7

The listing continues.
Compound	PINK1 modulator	TRPML1 ag
O=C(CN1N=C(c2ccccc2)CCC1=O)NCc1ccc(F)cc1Cl	-0.8%	2.5
Cc1ccc(Cl)cc1N(C)C(=O)c1sc2nc3n(c(=O)c2c1C)CCCC3	-1.0%	0.3
Cc1nn(-c2ccc(Cl)cc2)c2nc(-c3cccnc3)cc(C(F)(F)F)c12	-0.7%	0.7
COC(=O)c1ccccc1NC(=O)C1(c2cccs2)CCOCC1	1.1%	1.4
Cc1cc(C)cc(NC(=O)CCS(=O)(=O)c2cccc3nsnc23)c1	-0.7%	-0.7
CCOC(=O)c1c(NC(=O)COc2ccc(Br)cc2)sc2c1CCCC2	3.2%	-0.9
COc1cccc(-c2nc(SCC(=O)NCc3ccco3)c3c(=O)n(C)c(=O)n(C)c3n2)c1	2.9%	0.8
Cc1cc(C)cc(-n2c(C)cc(C(=O)C(=O)Nc3ccccc3F)c2C)c1	-0.2%	0.4
Cc1ccc(-c2csc(-c3nc(-c4ccc(Br)s4)cs3)n2)cc1	-2.0%	-0.5
Cc1cc(/C=C2\C=Cc3ccccc32)cc(C)c1N	4.6%	0.3
CCOC(=O)c1c(C)oc2nc(C)nc(NCCCN3CCN(c4ccc(F)cc4)CC3)c12	-0.1%	1.5
CCOC(=O)C1CCCN(C(=O)c2nn(-c3ccc(OC)cc3)c(=O)c3c2c2ccccc2n3C)C1 (stereo not drawn)	2.1%	2.0
O=C(NCCS(=O)(=O)N1CCN(c2ccccc2F)CC1)C(c1ccccc1)c1ccccc1	-0.2%	2.8
Cc1sc2ncn(CC(=O)Nc3cccc(C(F)(F)F)c3)c(=O)c2c1S(=O)(=O)N1CCN(C)CC1	2.6%	-0.6
CS(=O)(=O)c1oc(-c2ccc(F)cc2)nc1S(=O)(=O)c1ccc(Cl)cc1	3.7%	1.2
COc1cccc(CNC(=O)Cn2cc3c(n2)-c2c(oc(C(=O)N4CCCC4)c2C)CC3)c1	-0.2%	1.2
COCCNc1ccc(-c2nc(-c3ccncc3)no2)cc1[N+](=O)[O-]	3.0%	1.5
Cc1ccc(S(=O)(=O)c2nc(-c3ccco3)oc2SCC(=O)Nc2ccc(F)cc2)cc1	8.9%	-0.1
Cc1ccc(C)c(CN2C(=O)c3ccccc3S(=O)c3ccc(C(=O)N4CCN(c5ccccc5F)CC4)cc32)c1 (stereo not drawn)	-0.6%	-0.5
CCOC(=O)c1c(S(=O)(=O)N2CCCC(C(=O)Nc3ccc(OCC)cc3)C2)c(C)n(C)c1C (stereo not drawn)	0.4%	-0.7
COc1ccccc1CNC(=O)C1CCN(S(=O)(=O)c2c(C)noc2/C=C/c2c(C)cc(C)cc2C)CC1	0.9%	-0.1
COc1ccc(NC(=O)CCc2nc3cccnc3n2-c2ccccc2)c(OC)c1	1.5%	2.4
Cc1cc(Nc2ccc(Cl)cc2)n2cnnc2n1	1.7%	1.4
Cc1nc(SC(C)C(=O)Nc2ccccc2Cl)cc(-c2ccccc2)n1 (stereo not drawn)	2.6%	0.7
O=C(Nc1ccc(OC(F)(F)F)cc1)NC1COc2ccccc2C1 (stereo not drawn)	0.6%	0.7
COCCCn1c(SCC(=O)Nc2ccccc2OC)nc2c(sc3ccccc32)c1=O	-1.0%	1.3
CC(C)CC(=O)Nc1ccc(S(=O)(=O)Nc2cc3c(cc2N2CCOCC2)n(C)c(=O)c(=O)n3C)cc1	1.2%	0.6
O=C(NCc1cccnc1)c1nn(-c2ccc(F)cc2)nc1CO	1.4%	0.5
CCS(=O)(=O)c1nc(S(=O)(=O)c2ccc(C)cc2)c(NCc2ccc(Cl)cc2)s1	-0.2%	0.7
CCOC(=O)c1sc(NC(=O)C(C)Sc2nc(-c3ccccc3)cc(C(F)(F)F)n2)c(C(=O)OC)c1C (stereo not drawn)	1.3%	-0.5
CCOC(=O)c1c(C)[nH]c(C)c1S(=O)(=O)N(C)CC(=O)Nc1cccc(Cl)c1C	1.5%	-0.9
Cc1ccc(NC(=O)c2cnn3c2NC(=C2CC2)C=C3C(F)F)cc1	-1.1%	-0.7
COc1ccc(CN(C(=O)COc2ccccc2OC)C2CCS(=O)(=O)C2)cc1 (stereo not drawn)	-0.9%	-0.7
COc1ccc2c(c1)CC(NC(=O)Nc1ccc(Br)c(C)c1)CO2 (stereo not drawn)	0.5%	-0.6
COC(=O)c1ccccc1NC(=O)COCc1cc(-c2cccs2)on1	-0.7%	0.4
Cc1csc2nc(COc3ccccc3NC(=O)c3ccco3)cc(=O)n12	2.2%	-0.4
Cc1cccc(C(=O)Nc2ccc(OCc3cc(=O)n4ccc(C)cc4n3)cc2)c1	0.2%	0.8
Cc1ccc(-n2nc(CO)c(C(=O)NCCCc3ccccc3)n2)cc1C	-0.2%	3.8
Cc1cc(C)c(NC(=O)CSc2nncn3c2cc2oc(C)cc23)c(C)c1	-1.4%	-0.4
Nc1c(C(=O)Nc2ccccc2Br)sc2nc(-c3cccs3)ccc12	17%	4.2
Cc1oc(-c2ccc(Cl)cc2)nc1CSCC(=O)NCc1ccccc1Cl	0.2%	3.0
CC(=O)Nc1cc(-c2nc3ccccc3s2)ccc1C	2.4%	1.7
Cc1cccc(N2CCN(C(=O)c3ccc(Nc4nc5ccccc5n5nnnc45)cc3)CC2)c1C	-0.6%	0.2
CCc1nc2nc(C)c(NS(=O)(=O)c3ccc(F)c(C)c3)c(=O)n2[nH]1	-2.0%	1.3
CCC(C)c1ccc2oc(-c3ccc(NC(=O)c4cc5ccccc5o4)cc3)nc2c1 (stereo not drawn)	1.0%	2.5
CCCCN(CC)C(=O)CCNS(=O)(=O)c1ccc2c(c1)c(=O)n(C)c(=O)n2C	1.2%	-0.4
COc1ccc(-c2nc3c(c(SCC(=O)N4CCCCC4)n2)Cc2c(CO)cnc(C)c2O3)cc1	0.7%	0.1
Cc1ccccc1NC(=O)Cn1nc(-c2ccc(F)cc2)c2cnc3ccccc3c21	0.8%	0.0
CCOC(=O)Cc1c(C(=O)OCC)nnc2c(-c3ccccc3)c(C)nn12	-0.4%	0.8
CC(=O)c1ccc(NC(=O)c2ccc(-c3ccc(Cl)cc3)o2)cc1	1.2%	5.4
Cc1ccc2nc(N3CCN(c4cccc(C)c4C)CC3)c3nncn3c2c1	-0.6%	-0.4
COc1ccc(Nc2ncc3c(n2)CCN(Cc2ccccc2C)C3)c(OC)c1	2.8%	1.5
O=C(NCCSc1c(-c2ccc(Br)cc2)[nH]c2ccccc12)c1ccc(S(=O)(=O)N2CCOCC2)cc1	0.6%	-0.1
Cc1ccc(CSC2=Nc3ccccc3C3=NC(CCC(=O)NCc4cccs4)C(=O)N23)c(C)c1 (stereo not drawn)	0.6%	-0.6
CCn1c(=O)c2sccc2n2c(CCCC(=O)N3CCN(c4cccc(Cl)c4)CC3)nnc12	1.2%	0.2
CCc1ccccc1NC(=O)Cn1c(=O)n(Cc2ccco2)c(=O)c2ccccc21	2.6%	2.5
COc1ccc(N(C(=O)c2ccc(C)cc2)S(=O)(=O)c2ccc(Cl)cc2)cc1	-0.1%	-0.5
Cc1ccccc1Nc1c(-c2ccc(Br)cc2O)nc2sccn12	0.8%	2.4
NC(=O)C1CCN(c2csc3ccc(F)cc3c2=O)CC1	5.4%	-0.6
COc1ccc(Cl)cc1C(=O)NCC(c1ccc(N(C)C)cc1)N1CCOCC1 (stereo not drawn)	0.5%	-0.3

Structures shown so far containing a CF3 group, in the order listed:
Compound	PINK1 modulator	TRPML1 ag
Cc1nn(-c2ccc(Cl)cc2)c2nc(-c3cccnc3)cc(C(F)(F)F)c12	-0.7%	0.7
Cc1sc2ncn(CC(=O)Nc3cccc(C(F)(F)F)c3)c(=O)c2c1S(=O)(=O)N1CCN(C)CC1	2.6%	-0.6
O=C(Nc1ccc(OC(F)(F)F)cc1)NC1COc2ccccc2C1 (stereo not drawn)	0.6%	0.7
CCOC(=O)c1sc(NC(=O)C(C)Sc2nc(-c3ccccc3)cc(C(F)(F)F)n2)c(C(=O)OC)c1C (stereo not drawn)	1.3%	-0.5

The main list resumes, starting 2 compounds before the break.
Compound	PINK1 modulator	TRPML1 ag
NC(=O)C1CCN(c2csc3ccc(F)cc3c2=O)CC1	5.4%	-0.6
COc1ccc(Cl)cc1C(=O)NCC(c1ccc(N(C)C)cc1)N1CCOCC1 (stereo not drawn)	0.5%	-0.3
COc1ccc(-c2cc3nc(C)c(CCC(=O)NC4CCCCC4)c(C)n3n2)c(OC)c1	0.6%	-1.2
CC(=O)Nc1nonc1-c1nnc(SCc2ccc(C)cc2)n1C	-0.7%	1.5
CCOc1ccc(N(CC)C(=O)CCc2nc(-c3ccccc3F)no2)cc1	1.7%	3.2
Cc1ccc(CNC(=O)c2cc(-c3ccc(C)cc3)nc3n[nH]c(-c4ccc(F)cc4)c23)cc1	1.4%	0.0
Cc1ccc(NC(=O)CSc2nc3ccccc3c(=O)n2CCC(=O)NC2CCCCC2)cc1C	0.3%	-0.2
Cc1ccccc1NC(=O)CSc1ncc2c(n1)-c1ccccc1N(C)S2(=O)=O	3.5%	3.3
COc1cc(Cl)c(NC(=O)CN2C(=O)c3cccnc3Sc3ccccc32)c(OC)c1	2.1%	0.3
Cc1cc2n(n1)CCCN2C(=O)Nc1ccccc1F	0.3%	1.2
COc1ccc(S(=O)(=O)N(CC(=O)Nc2cccc(C(F)(F)F)c2)c2ccc(C)cc2)cc1	1.6%	2.2
CCOc1ccc(C(=O)NCC(c2ccc3c(c2)OCO3)N2CCN(c3ccc(F)cc3)CC2)cc1 (stereo not drawn)	6.0%	1.5
COc1ccc(-c2nc(CS(=O)CC(=O)NCCc3ccccc3)c(C)o2)cc1OC (stereo not drawn)	2.3%	-0.2
CCOc1ccccc1N1CC(c2nc3ccccc3n2CCOc2ccccc2OC)CC1=O (stereo not drawn)	4.5%	5.3
O=C(Nc1ccccc1)c1cccc(S(=O)(=O)Nc2cccc(F)c2)c1	3.5%	-0.5
CC(=O)c1ccc(NC(=O)CN(C)S(=O)(=O)c2cc3c(cc2C)NC(=O)CO3)cc1	1.3%	1.0
